High-throughput results as filed in PubChem.
NS1 function inh: influenza NS1 inhibition; S. cerevisiae slowed by influenza A NS1, growth recovery by OD600; Potency, µM (top dose mostly 46.1 µM), inactives show at the highest dose activity, positive = more growth; hit rate 0.4% among 270,000; AID 2326; also: actives are rising curves; nearly all actives have a fitted effect of over 50% in size
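OD600 was taken as the measure of yeast growth restored by compound in an NS1-expressing S. cerevisiae strain. Cells had been washed out of glucose medium and diluted 1:100 into galactose -URA medium, pH 6.0.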
2A StopGo: FMDV 2A StopGo reporter, luciferase signal; human cells with a luciferase reporter of 2A StopGo recoding; control for the full effect not named in the record; Potency, µM (titrated, usually from 57.9 µM), for inactives: at the highest dose signal change, negative = less light; hit rate 1.2% among 410,000; AID 1159524; active = well fitted falling curve with a large enough effect; inconclusive = small, poorly fitted or top-dose-only effect; inactive = no such curve, though single readings can be large or run the other way; tested in HEK293T cells; also: % is scaled to controls: 0 for no effect and ±100 for the full control effect; nearly all actives have a fitted effect of over 45% in size; luciferase light after 4 h
Lassa entry inh: inhibitors of Lassa virus binding or cell entry. Lassa virus pseudotype entry inhibition, cell reporter; control for the full effect not named in the record. Potency, µM (doses to about 37.9 µM), for inactives: top-dose activity change, negative = inhibition, most hits filed as inhibitors. hit rate 1.2% among 300,000. AID 540256; active means well fitted inhibition curve with a large enough effect; inconclusive means small, poorly fitted or top-dose-only effect, or effect the other way; inactive means flat fitted curve, though single readings scatter; tested in HEK293 cells; also: % is scaled to controls: 0 for no effect and ±100 for the full control effect; nearly all actives have a fitted effect of over 50% in size; luciferase read-out
RE007 growth inh: less growth of the S. pombe RE007 Vpr strain; hit rate 0.21% among 360,000; Potency, µM (doses to about 92.2 µM), without a hit: top-dose activity change, negative = less growth; S. pombe RE007 Vpr strain, BacTiter-Glo ATP luminescence, 24 h; control for the full effect not named in the record; active = well fitted falling curve with a large enough effect; inconclusive = small, poorly fitted or top-dose-only effect; inactive = no such curve, though single readings can be large or run the other way;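 also: % is scaled to controls: 0 for no effect and ±100 for the full control effect; nearly all actives have a fitted effect of over 50% in size; the assay follows cell death caused by Vpr and the record does not say whether a fall means rescue or toxicity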
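Fission yeast strain RE007, carrying one chromosomally integrated HIV-1 vpr copy, was seeded at OD 0.01 in PMG+AL medium with 23 nL pinned compound. After 24 h at 30 °C and 99% humidity, viability was read by BacTiter-Glo luminescence.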
Cruzain noTriton: cruzain (T. cruzi) inhibition without detergent. AID 1476. purified cruzain, Z-FR-AMC fluorescence, no detergent. Potency, µM, for inactives: max response, negative = inhibition, usual class: inhibitors. P25779. hit rate 2.3% among 200,000; active = well fitted curve in the direction sought with a large enough effect; inconclusive = small, poorly fitted or top-dose-only effect, or another doubt; inactive = no such curve, though single readings can be large; an effect the other way counts as inactive or inconclusive;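 also: plate controls were enzyme without inhibitor for no effect and buffer without enzyme for full effect; nearly all actives have a fitted effect of over 40% in size; top concentration of the series not given in the record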
Target sequence (P25779 123-467 limits assumed): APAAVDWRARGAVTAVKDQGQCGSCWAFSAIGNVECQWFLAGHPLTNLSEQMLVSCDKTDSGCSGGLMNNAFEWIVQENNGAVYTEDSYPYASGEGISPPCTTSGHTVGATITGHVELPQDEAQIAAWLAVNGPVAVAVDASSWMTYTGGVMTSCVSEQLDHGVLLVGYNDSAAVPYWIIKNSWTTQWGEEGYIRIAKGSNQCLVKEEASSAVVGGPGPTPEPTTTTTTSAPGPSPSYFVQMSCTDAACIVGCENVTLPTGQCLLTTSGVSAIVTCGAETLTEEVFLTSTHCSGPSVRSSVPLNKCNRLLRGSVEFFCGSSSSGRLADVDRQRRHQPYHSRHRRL
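Detergent-free condition (0.00005% Triton X-100) in acetate buffer pH 5.5 with DTT. 1.5 nM enzyme and compound were pre-mixed 15 min, then 2 uM Z-FR-AMC substrate added; reaction progress from fluorescence change between first and third reads (60 s).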
MARV entry inh: inhibitors of Marburg virus binding or cell entry | Marburg virus pseudotyped entry inhibition, cell reporter; control for the full effect not named in the record; about a third of the inactives were read at about 46 µM | Potency, µM (doses to about 37.8 µM), inactives show at the highest dose activity change, negative = inhibition, most hits filed as inhibitors | AID 540276 | hit rate 1.8% among 300,000; active = well fitted inhibition curve with a large enough effect; inconclusive = small, poorly fitted or top-dose-only effect, or effect the other way; inactive = flat fitted curve, though single readings scatter; tested in HEK293 cells; about a fifth of its hits are not listed in these tables; also: % is scaled to controls: 0 for no effect and ±100 for the full control effect; luciferase read-out
Cruzain Triton: blocks cruzain activity in presence of Triton detergent; purified cruzain, Z-FR-AMC fluorescence, 0.01% Triton; Potency, µM, for the others: max response, negative = inhibition, actives largely listed as inhibitors; P25779; hit rate 0.43% among 200,000; active = well fitted curve in the direction sought with a large enough effect; inconclusive = small, poorly fitted or top-dose-only effect, or another doubt; inactive = no such curve, though single readings can be large; an effect the other way counts as inactive or inconclusive;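 also: plate controls were neutral wells for no effect and buffer without enzyme for full effect; nearly all actives have a fitted effect of over 40% in size; top concentration of the series not given in the record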
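Cysteine protease activity tested under reducing, mildly acidic conditions (100 mM sodium acetate pH 5.5, 5 mM DTT) plus 0.01% Triton X-100. Cruzain 1.5 nM; substrate Z-FR-AMC 2 uM; 15 min compound preincubation at room temperature.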
SARS PLpro yeast: inhibitors of SARS-CoV papain-like protease in yeast. S. cerevisiae expressing SARS-CoV PLpro, growth rescue; control for the full effect not named in the record. hit rate 0.19% among 330,000. Potency, µM (highest dose often 32.9 µM), for the others: at the top dose activity, positive = growth rescue; also: 0% is about no effect; nearly all actives have a fitted effect of over 55% in size; growth read by luminescence after 48 h
Active calls of the source: *; ? = inconclusive; / = not tested or not shown; [ ] = dose if it differs, or a comment. Unless noted, calls follow the shape of the dose curve; as a rule, active means well fitted rising curve with a large enough effect; inconclusive means small, poorly fitted or top-dose-only effect; inactive means no such curve, though single readings can be large or run the other way. Potency is read from the fitted curve at half-maximal effect.

Order of values – NS1 function inh | 2A StopGo | Lassa entry inh | RE007 growth inh | Cruzain noTriton | MARV entry inh | Cruzain Triton | SARS PLpro yeast
> Cn1cc(Br)c(C(=O)N/N=C/c2cc3c(cc2Cl)OCO3)n1
    -1% | 56%[activator] | / | -2% | / | / | / | -11%
> COc1ccc(CNCc2ccc(F)cc2)c(OC)c1
    6% | 6% | 4%[46.1 µM] | 0% | / | ? | / | 3%
> C(=N\N1CCN(Cc2ccccc2)CC1)/c1ccccc1
    4% | 48%[activator] | / | -4% | / | / | / | 0%
> Cc1nc2ccc(NC(=O)Cn3cnc4c3c(=O)n(C)c(=O)n4C)cc2s1
    1% | / | / | / | 2% | 1% | -2.8% | 0%
> C=CCCC(=O)N1CCC(n2nccc2NC(=O)CCCc2ccccc2)CC1
    0% | 17% | 20% | -21% | / | 19% | / | -1%
> NS(=O)(=O)c1ccc(CCNC(=O)COC(=O)CC(c2ccccc2)c2ccccc2)cc1
    -2% | ? | -13%[46.1 µM] | -9% | / | ? | / | -1%
> CC(C)NC(=O)c1c(O)c2ccccc2[nH]c1=O
    -62% | 19% | 1% | 9% | ? | 10% | -1.9% | 0%
> O=C(Nc1cc(C(F)(F)F)ccc1Cl)c1cccc(N2C(=O)CCC2=O)c1
    3% | -11% | -4% | -5% | / | 28% | / | ?
> OCCNc1cc(Cl)ncn1
    6% | -9% | / | 11% | / | / | / | 2%
> CC1CCc2sc(C(=O)Nc3nnc(SCc4ccc(F)cc4)s3)cc2C1 (stereo not drawn)
    1% | -18% | 14% | 2% | 10µM* | 0% | -9.7% | 0%
> COC(=O)c1ccccc1NCc1cc(=O)oc2cc(O)c(O)cc12
    5% | -9% | ? | 2% | / | ? | / | 4%
> COc1ccccc1C(=O)N/N=C(\C)CC(=O)Nc1ccccn1
    -10% | 17% | 1%[46.1 µM] | 5% | / | ? | / | -2%
> Cc1ccc(-c2nc(S(=O)(=O)c3ccc(C)cc3)c(SCC(=O)Nc3ccc(F)cc3)o2)cc1
    / | -16% | ? | / | -8% | -9%[46.1 µM] | -2.6% | /
> COc1ccc(N2CCN(C(=O)c3ccc(NS(=O)(=O)c4ccc(F)c(F)c4)cc3)CC2)cc1
    14% | 21% | -1% | -15% | 0% | -1% | -6.0% | -1%
> CCOc1ccc(NC(=O)c2ccc(F)c(S(=O)(=O)N(CC)Cc3ccccc3)c2)cc1
    / | ? | ? | / | 1% | / | 0.4% | /
> COc1ccc(NC(C)=O)cc1NC(=O)CN1CCN(CC(=O)Nc2ccccc2Cl)CC1
    -16% | -12% | -9% | 11% | 12% | -30% | 3.7% | 4%
> O=C(NC(c1ccccc1)c1ccccn1)c1cccc([N+](=O)[O-])c1 (stereo not drawn)
    / | -2% | 0% | 0% | / | -11%[46.1 µM] | / | -1%
> O=C(C1CC(c2ccccc2O)=NO1)N1CCc2ccccc2C1 (stereo not drawn)
    -5% | / | 19% | -17% | -16% | 10% | -15% | -11%
> COc1ccccc1CNC(=O)C1Cc2cc(S(=O)(=O)N3CCCCC3)ccc2N1C(C)=O (stereo not drawn)
    -9% | 0% | -6%[46.1 µM] | -7% | / | 14%[46.1 µM] | / | -1%
> Cc1ccc(C)c(CNC(=O)Nc2ccccc2)c1
    1% | 0% | -13% | 13% | / | 4%[46.1 µM] | / | /
> CC(C)CCCN1CCN=C1N(C)C
    8% | -10% | / | 4% | / | / | / | -1%
> CC(C)CN(CCCNC(=O)CC1Oc2ccccc2NC1=O)CC(C)C (stereo not drawn)
    -2% | -2% | 0% | 7% | -7% | ? | 1.1% | 2%
> CCc1nc2ccccc2[nH]c1=O
    -1% | -8% | 26% | -2% | / | 13% | / | 1%
> Cc1cc(-c2nc3ccccc3[nH]2)ccc1N
    / | ? | ? | ? | / | ? | / | -12%
> Cc1ccc(N(C)C(=O)N2CCN(S(=O)(=O)c3ccc(C)cc3)CC2)cc1
    -52% | -9% | / | -9% | 7% | 2% | -1.3% | 1%
> CCC1C(=O)NCCN1C(=O)c1ccccc1OC1CCN(S(C)(=O)=O)CC1 (stereo not drawn)
    2% | -8% | / | 5% | / | / | / | 1%
> O=C(c1ccc(S(=O)(=O)Cc2ccccc2F)c([N+](=O)[O-])c1)N1CCCC1
    / | ? | -2% | -10% | / | ? | / | -1%
> O=C(CC1N=C2c3ccccc3N=C(SCc3cccc(F)c3)N2C1=O)NC1CCCCC1 (stereo not drawn)
    / | ? | -23%[46.1 µM] | / | 10% | / | -0.4% | /
> CCc1cccc2c1NC(=O)C21OCCO1
    1% | -1% | / | 2% | / | / | / | -1%
> O=C(Nc1ccncc1Cl)c1ccncc1
    9% | -18% | 3%[46.1 µM] | -4% | / | 21%[46.1 µM] | / | -4%
> C=CCn1c(=NC(=O)c2cccs2)sc2cc(NC(C)=O)ccc21
    -2% | 41%[activator] | / | 14% | / | / | / | 0%
> NC(=O)C1CC(O)CN1c1nc(CN2CCOCC2)nc2scc(-c3ccccc3)c12 (stereo not drawn)
    -2% | 17% | 13% | -4% | -8% | -4% | -3.7% | -18%
> O=C1C2CC=CCC2C(=O)N1Nc1ccccc1 (stereo not drawn)
    / | 3% | -10% | -5% | / | ? | / | 0%
> COc1ccccc1NC1=CC(=O)CC(c2ccccc2)C1 (stereo not drawn)
    17% | 3% | 7.3µM* | 29% | -19% | -15% | -2.9% | -6%
> Cc1ccc(C(=O)OCC(=O)Nc2ccccc2N2CCOCC2)cc1
    -3% | -5% | -10% | 0% | -14% | 4% | -5.7% | -14%
> COc1cc(C(=O)Nc2ccc(OCC(=O)O)cc2)cc(OC)c1OC
    2% | -6% | -1% | 10% | 6% | 20% | 4.1% | 1%
> COc1ccc(C(CNC(=O)c2cccc(S(=O)(=O)Nc3ccccc3OC)c2)N2CCOCC2)cc1 (stereo not drawn)
    / | -3% | -4% | 2% | / | ? | / | 0%
> Cc1ccc(C(=O)N/C(=C\c2ccc(Cl)cc2)C(=O)NCC2CCCO2)cc1 (stereo not drawn)
    10% | -12% | -1% | -12% | -6% | 23%[46.1 µM] | -1.0% | 19%
> COc1ccc(-n2nc(C(=O)NCC(=O)NC(C)C)c3ccccc3c2=O)c(OC)c1
    0% | -3% | 0% | 2% | / | -5% | / | 1%
> Clc1cccc(Nc2nc(-c3ccncc3)cs2)c1
    2% | -11% | ? | 5% | / | ? | / | -1%
> Cn1c(=O)[nH]c(=O)c2c1nc(N1CCCCC1)n2CC(O)COc1ccc([N+](=O)[O-])cc1 (stereo not drawn)
    1% | -24% | / | -2% | / | / | / | 5%
> c1ccc(C2=Nn3c(nnc3-c3ccco3)SC2)cc1
    1% | 0% | 5%[46.1 µM] | 13% | / | -10%[46.1 µM] | / | -1%
> COC(=O)C1=C(C)Nc2c(c(=O)n(C)c(=O)n2C)C1c1cccc(O)c1 (stereo not drawn)
    2% | 6% | / | -8% | / | / | / | -1%
> COc1ccc(C(=O)CCC(=O)Nc2cccnc2)c(OC)c1
    8% | 3% | 13%[46.1 µM] | -8% | / | -13%[46.1 µM] | / | 5%
> O=C(CN1CCCN(Cc2ccc(F)cc2)S1(=O)=O)Nc1ccc2c(c1)OCCO2
    / | -3% | 5%[46.1 µM] | / | 1% | / | -2.9% | /
> CC(C)CNC(=O)CSc1nnc(-c2ccc(Cl)cc2)n1N
    / | -15% | 13%[46.1 µM] | 29% | / | ? | / | 0%
> Cc1cc(C)c(S(=O)(=O)c2ccccc2C(=O)O)c(C)c1
    3% | 19% | ? | -2% | -4% | -8% | 0.2% | -10%
> Nc1nc(-c2ccccc2)cn1N
    -4% | 23% | 17% | 1% | 9% | 18% | 0.5% | -11%
> Cc1nc2c(-c3ccccc3)c(C)nn2c(C)c1CCC(=O)NCc1cccc(Cl)c1
    / | -10% | 30%[46.1 µM] | / | 1% | -15%[46.1 µM] | -0.1% | /
> COc1ccc(N2C(=O)NC3CC2(C)Oc2ccccc23)cc1 (stereo not drawn)
    / | -7% | 0% | -7% | / | 15%[46.1 µM] | / | -1%
> CC1CC(C)CN(CCCNC(=O)CCC(=O)N2CC(C)Oc3ccccc32)C1 (stereo not drawn)
    -10% | -1% | / | -9% | / | / | / | 0%
> COc1ccccc1NC(=O)CSc1nncn1-c1ccccc1
    -1% | 5% | / | 8% | / | / | / | -6%
> Clc1ccc2nc(Nc3ccccc3Cl)nc(-c3ccccc3)c2c1
    / | -17% | -24%[46.1 µM] | / | 11% | / | 0.2% | /
> O=C(Nc1cc(S(=O)(=O)N2CCOCC2)ccc1N1CCOCC1)c1cccc(S(=O)(=O)N2CCCCC2)c1
    3% | 1% | / | 5% | / | / | / | 0%
> CC(=O)c1cccc(S(=O)(=O)NCCC(=O)O)c1
    5% | -5% | 23%[46.1 µM] | -13% | / | 0%[46.1 µM] | / | 1%
> CC(Sc1ccccc1)C(=O)N/N=C/c1ccccc1 (stereo not drawn)
    / | -5% | -8%[46.1 µM] | -8% | / | 3%[46.1 µM] | / | /
> Cc1cc(NC(=O)COc2ccc(N(C)S(=O)(=O)c3ccccc3)cc2)no1
    -16% | -21% | -6% | 9% | -6% | 3% | -3.6% | -11%
> CCCCc1nc2cc(C(=O)N3CCCCC3CCNC(C)=O)ccc2o1 (stereo not drawn)
    1% | 25% | / | -8% | / | / | / | 24%
> COc1ccc(-n2nc(C(=O)NCC(=O)NCC3CCCO3)c3ccccc3c2=O)cc1Cl (stereo not drawn)
    9% | -16% | -1% | -10% | 20% | -8% | -2.1% | 1%
> CC1CCc2onc(C(=O)Nc3ccc(Cl)cc3)c2C1 (stereo not drawn)
    / | 31%[activator] | ? | / | -21% | / | -0.9% | /
> COc1ccccc1-c1cc(C(F)(F)F)nc(S(=O)(=O)CCCC(=O)Nc2cc(Br)ccc2O)n1
    / | 18% | 7%[46.1 µM] | / | -28% | / | -6.2% | /
> COc1ccc(NC(=O)c2ccccc2CC[N+](=O)[O-])cc1
    / | 11% | ? | -7% | / | 25%[46.1 µM] | / | 1%

An unsorted share of the library. About 4.8% of those tested had a hit in this group.
